VDR inhibitor – Inhibitors of the vitamin D receptor (VDR): qHTS; Vitamin D3 receptor (Homo sapiens), P11473; VDR-SRC2-3 peptide fluorescence polarization, 2 h; Potency, µM, for inactives: max response, negative = inhibition, actives largely listed as inhibitors; 400,000 compounds, 0.93% hits; active = well fitted inhibition curve with a large enough effect; inconclusive = small, poorly fitted or top-dose-only effect, or another doubt; inactive = no such curve, though single readings can be large or run the other way; note: series mostly up to about 120 µM
Target sequence (P11473 whole entry, looked up): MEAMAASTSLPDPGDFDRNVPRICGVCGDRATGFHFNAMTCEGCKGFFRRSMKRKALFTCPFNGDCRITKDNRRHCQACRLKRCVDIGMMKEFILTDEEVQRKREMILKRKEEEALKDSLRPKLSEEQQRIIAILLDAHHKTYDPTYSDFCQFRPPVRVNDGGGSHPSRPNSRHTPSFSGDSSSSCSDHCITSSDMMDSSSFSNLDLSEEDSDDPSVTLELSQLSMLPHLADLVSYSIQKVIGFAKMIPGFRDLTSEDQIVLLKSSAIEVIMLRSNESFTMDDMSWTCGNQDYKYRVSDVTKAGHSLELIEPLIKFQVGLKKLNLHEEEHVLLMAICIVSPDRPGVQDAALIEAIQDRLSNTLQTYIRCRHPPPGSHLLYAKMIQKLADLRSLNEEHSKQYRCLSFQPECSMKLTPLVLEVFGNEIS
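Inhibition of the VDR/SRC2-3 peptide interaction is quantified by fluorescence polarization. Compounds (23 nl, pintool) incubate with the reagents for 2 hours at ambient room temperature.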
Starred values were filed as active, the others as inactive; ? = inconclusive; & = joins results of further samples; [ ] = remark or other dose. % is set by controls: 0 for no effect and ±100 for the full control effect; potency is the fitted concentration of half-maximal effect.

A first look, five compounds:
SMILES	VDR inhibitor
COc1ccc(Oc2ccc(/C=N/NC(=O)c3cccnc3)cc2[N+](=O)[O-])cc1	3.9%
Nn1c(SCC(=O)Nc2ccc3c(c2)OCCO3)nncc1=O	-7.9%
CC(C)c1ccc(Nc2c(-c3ccccc3O)nc3cnccn23)cc1	-12.8%
O=c1nc(NCc2ccco2)sc2ncccc12	8.1%
O=C(CSc1nnc(Cc2cc(=O)[nH]c(=O)[nH]2)n1-c1ccc(Cl)cc1)NCC1CCCO1 (stereo not given)	17.1%

Main list, previewed entries included:
SMILES	VDR inhibitor
COc1ccc(Oc2ccc(/C=N/NC(=O)c3cccnc3)cc2[N+](=O)[O-])cc1	3.9%
Nn1c(SCC(=O)Nc2ccc3c(c2)OCCO3)nncc1=O	-7.9%
CC(C)c1ccc(Nc2c(-c3ccccc3O)nc3cnccn23)cc1	-12.8%
O=c1nc(NCc2ccco2)sc2ncccc12	8.1%
O=C(CSc1nnc(Cc2cc(=O)[nH]c(=O)[nH]2)n1-c1ccc(Cl)cc1)NCC1CCCO1 (stereo not given)	17.1%
Cc1cc(C)nc(Sc2ccc3nnnn3n2)n1	9.6%
CC1(C)CC(=O)C(C(=O)c2ccccc2)C(=O)C1Cl (stereo not given)	-5.6%
COc1ccc(CCNC(=O)c2cnn(-c3cccc(C)c3)c2C2CCNCC2)cc1OC	9.0%
CCOC(=O)N1CCN(C(=O)c2cc3cc(Cl)ccc3[nH]2)CC1	2.6%
Cc1c(NC(=O)c2cccc(NC(=O)c3ccco3)c2)cccc1C(=O)O	7.6%
CCc1ccc(C(=O)CCC(=O)Nc2cccc(S(=O)(=O)N3CCCCC3)c2)cc1	-21.4%
CCN(CC)C(=O)C1CC(=O)N(c2ccc(OC)cc2)C1c1ccc(OC)cc1 (stereo not given)	-10.4%
COc1ccc(N(C)S(=O)(=O)c2ccc3c(c2)NC(=O)CC(=O)N3)c(OC)c1	12.6%
CCN(CCCNC(=O)c1cc2c(=O)[nH]c3ccccc3c2s1)c1ccccc1	?
COc1cc2c(cc1OC)C(C1C(=O)CC(C)CC1=O)N(C(=O)CCl)CC2 (stereo not given)	-26.2%
CC1CCCCC1NC(=O)C1CCC(CNS(=O)(=O)c2ccccc2)CC1 (stereo not given)	-0.1%
Cc1cc(C)c2c(N)c(C(=O)Nc3ccc(F)cc3)sc2n1	34.6%[activator]
CCOC(=O)N1CCC(NC(=O)c2cccc3c2C(=O)N(CCOC)C3)CC1	10.2%
O=C(COc1cccnc1[N+](=O)[O-])N1CCc2ccccc21	-10.1%
O=C1c2ccccc2-n2c1nc1ccccc1c2=O	-10.9%&1.5%&-28.8%
Cn1nnc2cc(C(=O)Nc3cccnc3)ccc21	6.9%
O=S(=O)(O)c1ccc(O)cc1	2.4%
COc1cc(NS(=O)(=O)c2ccc(NC(=S)NC(=O)c3ccccc3)cc2)nc(OC)n1	-7.1%
Cc1cc(NC(=O)CC(F)(F)F)n(-c2ccccc2)n1	-3.8%
Cc1ccc(/C(O)=C2/C(=O)C(=O)N(c3ccccn3)C2c2ccc(F)cc2)cc1 (stereo not given)	-15.0%
CCN(C(=O)c1cc2c(=O)oc3ccc(C)cc3c2s1)c1ccccc1C	-6.1%
Nc1nc2n(n1)C(c1cccs1)CC(c1ccccc1)N2 (stereo not given)	7.6%
CCCC(CCC)C(=O)Nc1cccc(-c2cn3cccnc3n2)c1	9.1%
Cc1n[nH]c(C)c1S(=O)(=O)N(CC(=O)N1CCc2ccccc21)c1ccc(C(C)C)cc1	5.6%
COc1cccc(-c2nnc(SCC(N)=O)n2-c2ccc(Cl)cc2)c1	10.6%
O=C(Nc1ccccc1)N1CCCN(c2ccc(C(F)(F)F)cc2[N+](=O)[O-])CC1	-2.6%
O=C(NCc1ccccc1Cl)c1c2c(nc3ccccc13)C(=O)N(C1CCCCC1)C2	7.8%
COc1ccc(-n2cnc3cc(NCc4cccs4)ccc32)cc1	-10.0%
COc1ccc(CNC(=O)Cc2csc(NC(=O)Nc3ccccc3OC)n2)cc1	-22.0%
CCC(=O)N1c2ccccc2NC2=C(C(=O)CCC2)C1c1ccccc1 (stereo not given)	0.7%
C=CCOc1ccc(C(c2c(C)n(C)n(-c3ccccc3)c2=O)c2c(C)n(C)n(-c3ccccc3)c2=O)cc1	2.0%
CC(C)(C)NC(=O)NC(=O)CN1CCCCC1	-11.5%
Nc1ccc(C(=O)c2ccc3c(c2)OCCO3)cc1N	-1.7%
CSc1ccc(Cl)c(C(=O)NCC(C)C)c1	-3.0%
CCOc1ccc(C2/C(=C(\O)c3ccc4c(c3)OCCO4)C(=O)C(=O)N2CCN2CCOCC2)cc1OCC (stereo not given)	6.7%
CCOc1ccc(-c2cnc(N)n2C)cc1	-11.5%
CCOC(=O)Cn1c(-c2cccnc2Cl)nc2cc(C)c(C)cc21	6.9%
Cc1cc(C)n2nc(C(=O)OCC(=O)N(C)C3CCS(=O)(=O)C3)nc2n1 (stereo not given)	16.6%
CCN1C(=O)c2ccc(C(=O)NCc3ccc4c(c3)OCO4)cc2C1=O	-12.6%
COc1ccc(C2CC(c3ccc4ccccc4c3)=NN2C(=O)CSc2ncccn2)cc1 (stereo not given)	-1.1%
O=C(COC(=O)c1ccc(F)c(S(=O)(=O)N2CCOCC2)c1)NC1CC1	9.0%
CS(=O)(=O)Nc1cccc(C2=NN(C(=O)c3cccc(F)c3)C(c3cccs3)C2)c1 (stereo not given)	-8.3%
CCOC(=O)/C(C#N)=C\c1ccc(N2CCN(C/C=C/c3ccccc3)CC2)cc1	-2.4%
O=C(c1cc2ccccc2o1)N1CCN(S(=O)(=O)c2ccc(Cl)s2)CC1	-5.6%
CC(=O)c1ccc(N2CCN(CN3C(=O)CC4(CCCC4)C3=O)CC2)c(F)c1	-4.2%
COc1ccccc1OCCCSc1nc(-c2ccc(C(C)(C)C)cc2)nc2cc(=O)[nH]n12	15.6%
CC(C)(C)NC(=O)C(=O)NNC(=O)c1ccccc1	-8.3%
CCN(CC)C(=O)c1ncn(Cc2ccccc2)c1C(=O)N(CC)CC	-12.6%
Cc1nc2c(O)cccc2cc1CO	-7.7%
Cc1cc(=O)c(C(=O)Nc2ccc(N3CCOCC3)cc2N2CCOCC2)nn1-c1ccccc1Cl	-3.2%
Cc1ccc(CN2CCN(CC(=O)N/N=C/c3ccccc3F)CC2)cc1	-12.2%
O=c1cc(-c2ccccc2Cl)oc2c([N+](=O)[O-])c(O)cc(O)c12	?
Cc1nc(NC(=O)CN2CCC(O)(c3ccc(F)cc3)CC2)sc1C	9.4%
O=C(Cc1nnc(NC(=O)c2cccc([N+](=O)[O-])c2)s1)NCc1ccccc1	-7.9%
Cc1ccc(-c2cc(C(=O)N/N=C/c3c(C)nn(C)c3C)c3ccccc3n2)cc1C	1.1%

Continuation:
SMILES	VDR inhibitor
Cc1noc(NS(=O)(=O)c2ccc(NC(=O)c3cccc(S(=O)(=O)Nc4ccccc4F)c3)cc2)c1C	-9.7%
CCCCn1c(N)c(N(CCC(C)C)C(=O)CCCc2nc3ccccc3s2)c(=O)[nH]c1=O	5.1%
COc1ccc(CCC(=O)NCc2cnn(C)c2)cc1	-4.2%
O=C(N/N=C1\CC2CC=CC12)c1ccccc1Cl (stereo not given)	-10.0%
Cc1ccc(OCC(=O)N2CCc3ccccc3C2)c([N+](=O)[O-])n1	-1.2%
COc1cc(NC(=O)C2CSC3(C)CCC(=O)N23)c(OC)cc1Cl (stereo not given)	-12.4%
C[C@H](CO)N1C[C@H](C)[C@@H](CN(C)S(=O)(=O)c2cccs2)Oc2c(NC(=O)CCC(F)(F)F)cccc2C1=O	-21.2%
Cc1nc2c(=O)n(-c3ccc(F)c(Cl)c3)nc(C)c2s1	-3.4%
CCC[C@@H](CN1CCC[C@H]1CN1C(N)=NC[C@@H]1Cc1ccccc1)N1C[C@@H](Cc2ccccc2)N(CCCC2CCCC2)C1=N	12.8%
Cc1cccc(N=Nc2c(C)nn(-c3ccccc3)c2N)c1C	2.3%
O=C(NCc1ccccc1)C1CCC(CNS(=O)(=O)c2cccs2)CC1 (stereo not given)	-8.3%
CCc1cccc(OCCOCCN2CCCC2)c1	-2.1%
N#CCC(=O)Nc1ccc(C(=O)N2CCN(c3ccccn3)CC2)cc1	-5.2%
C=CCNC(=S)Nc1cccc2[nH]ncc12	-2.5%
COc1ccccc1NC(=O)CSc1nc(=O)n2cc(C)ccc2n1	-1.7%
CN1C(=O)C(CC(N)=O)N(NC(=O)c2ccc(Cl)cc2)C1=S (stereo not given)	3.7%
Cc1ccc(NS(=O)(=O)c2c(C)[nH]c(C)c2C(=O)N2CCCCC2)cc1F	6.2%
Cc1cccc2c1-c1sc(C(=O)NCc3ccccc3Cl)cc1CO2	-17.7%
Cc1cc(Cl)ccc1NC(=O)CSc1nc2c(c(=O)[nH]1)CCC2	2.6%
CC(C)[C@H]1CN(C)CCN1Cc1cn(C)nc1-c1cccc(Cl)c1	2.0%

Laid out differently: 5 of the compounds above.
VDR inhibitor	compound
3.7%	CN1C(=O)C(CC(N)=O)N(NC(=O)c2ccc(Cl)cc2)C1=S (stereo not given)
6.2%	Cc1ccc(NS(=O)(=O)c2c(C)[nH]c(C)c2C(=O)N2CCCCC2)cc1F
-17.7%	Cc1cccc2c1-c1sc(C(=O)NCc3ccccc3Cl)cc1CO2
2.6%	Cc1cc(Cl)ccc1NC(=O)CSc1nc2c(c(=O)[nH]1)CCC2
2.0%	CC(C)[C@H]1CN(C)CCN1Cc1cn(C)nc1-c1cccc(Cl)c1

Carrying on.
SMILES	VDR inhibitor
Cc1ccc(S(=O)(=O)CC(=O)Nc2ccc(S(=O)(=O)Nc3onc(C)c3C)cc2)cc1	-0.1%
CC(C)/C=C1\CCCCC1N(C)C(=O)NC(C)C (stereo not given)	-3.0%
Cc1ccnc(NC(c2ccccc2F)c2ccc3cccnc3c2O)c1 (stereo not given)	?
CCc1ccccc1NC(=O)c1ccc(F)c(S(=O)(=O)N2CCN(c3cccc(Cl)c3)CC2)c1	8.5%
O=c1c(Cl)c(NCc2ccc(F)cc2)cnn1C12CC3CC(CC(C3)C1)C2	-15.3%
CN(C)CCN=Cc1c(O)n(-c2ccc(S(=O)(=O)N3CCOCC3)cc2)c(=O)c2ccccc12	11.9%
O=S(=O)([N-]c1nc2ccccc2nc1-[n+]1ccc(-c2ccncc2)cc1)c1ccccc1	8.1%
NC(=O)C1CCN(C(c2ccccc2)c2nnnn2C2CCCC2)CC1 (stereo not given)	-1.6%
CC1CCCC(NC(=O)CCCn2ncn3c(cc4occc43)c2=O)C1C (stereo not given)	2.1%
Cc1nn(-c2ccccc2)c(-n2cccc2)c1C(=O)N1CCN(c2ccccc2)CC1	21.6%
CCOc1ccccc1NS(=O)(=O)c1ccc2c(c1)CC(C)N2C(=O)C1CC1 (stereo not given)	7.7%
COC(=O)C1CSc2[nH]c(=O)sc2C1c1ccc(OC)c(OC)c1 (stereo not given)	-10.4%
Cc1ccc(NC(=O)COC(=O)C2CCN(c3ccc(C(F)(F)F)cn3)CC2)cc1C	-0.8%
CCN(CC)S(=O)(=O)c1ccc(OC)c(NC(=O)c2ccc(=O)[nH]c2)c1	13.0%
Cc1ccc(C23CC4CC(CC(C(=O)N5CCN(C)CC5)(C4)C2)C3)cc1	2.0%
CC(=O)C1C(c2cccc(F)c2)NC(=O)NC1(O)C(F)(F)F (stereo not given)	2.7%
CCCNC(=O)CCc1c(C)nc2nc(-c3cc(OC)cc(OC)c3)nn2c1C	-11.6%&12.7%
Cc1cccc(Oc2ncnc3onc(C)c23)c1C	31.4%[activator]
CNc1nc(SCc2ccccc2Cl)nc2c1CCCC2	6.4%
COC(=O)c1ccc(/C=C/C(=O)OCC(=O)NCc2cccs2)cc1	-5.0%

A different layout for some results above.
> CC(=O)C1C(c2cccc(F)c2)NC(=O)NC1(O)C(F)(F)F (stereo not given)
- VDR inhibitor = 2.7%

> CC1CCCC(NC(=O)CCCn2ncn3c(cc4occc43)c2=O)C1C (stereo not given)
- VDR inhibitor = 2.1%

The listing continues.
SMILES	VDR inhibitor
CC(=O)Nc1ccc(C(=O)COC(=O)c2cccs2)c(F)c1	19.4%
CCN(CC(=O)NCc1ccc(Cl)cc1)C(=O)CSCC(=O)Nc1ccc(C)cc1	-26.9%
CCc1cccc(C)c1Nc1c(-c2cccs2)nc2nc(C)cc(C)n12	16.4%
Cc1ccc(-c2nnn3c2nc(NC(C)C)c2ccccc23)cc1	17.5%
COc1ccc(S(=O)(=O)N2CCCC2C(=O)Nc2nc3c(s2)CCCC3)cc1 (stereo not given)	-3.2%
CCN(N)C(=S)Nc1ccc(F)cc1	-1.0%
O=C(NCC(c1ccco1)N1CCCCC1)c1cccnc1 (stereo not given)	-11.5%
Cc1nc2c(C(=O)N(C)Cc3ccccc3)c[nH]n2c(=O)c1Cc1ccc(Cl)cc1	?
CCOCC(=O)Nc1c(C(=O)Nc2ccc3c(c2)OCCO3)oc2ccccc12	-7.3%
CN(C)CCCN(C(=O)COc1ccccc1)c1nc2cc3c(cc2s1)OCCO3	-27.2%
Cc1cc(S(=O)(=O)Nc2cc3c(cc2N2CCOCC2)n(C)c(=O)n3C)ccc1F	0.3%
COc1ccccc1CNC(=O)CCCc1nnc2n(C)c(=O)c3sccc3n12	1.2%
Cc1cccc(NC(c2ccc(C)s2)c2ccc3ccc(C)nc3c2O)n1 (stereo not given)	?
CN(C)c1ccc(/C=C/c2ccc3c4ccccc4ccc3[n+]2-c2ccccc2)cc1	46.0%&14.0%[activator]
Cc1ccc(S(=O)(=O)N2CCC(C(=O)NCc3ccncc3)CC2)cc1	3.7%
CC(=O)Nc1ccc(OCc2cccc([N+](=O)[O-])c2)cc1	4.6%
COc1ccc(F)cc1S(=O)(=O)N1CCC2(CC1)OCCN2S(=O)(=O)c1ccccc1	-1.7%
COc1ccc(C(=O)OCC(=O)c2ccc3c(c2)NC(=O)CO3)cc1OC	5.8%
CCCCOc1ccc(CC(=O)NCC(=O)O)cc1	2.5%
CCC(CC)C(=O)OCC(=O)Nc1cc(OC)c([N+](=O)[O-])cc1C	3.7%
CCOC(=O)c1cnc(-c2ccccc2O)nc1Cl	-5.8%
Cn1cnc(S(=O)(=O)N2CCC(C(=O)N3CCN(c4ccccc4F)CC3)CC2)c1	3.8%

These rows are one share of the data; the hit share may differ from the screen's.
